PABP FP inh: blocks human PABP binding to poly(A) RNA; fluorescence polarization; inhibition, % at 35 µM; actives 1% (n = 290,000);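 active means 50% or more with normal probe brightness, or confirmed in later tests; about a fifth of its hits are not listed in these tables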;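 further: calls also rest on retests at 20 µM and on dose response follow-up; controls were probe without protein and protein plus probe with vehicle; some compounds called inactive have numbers as strong as hits; many hits fall short of the cut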
Target sequence (P11940 whole entry, looked up): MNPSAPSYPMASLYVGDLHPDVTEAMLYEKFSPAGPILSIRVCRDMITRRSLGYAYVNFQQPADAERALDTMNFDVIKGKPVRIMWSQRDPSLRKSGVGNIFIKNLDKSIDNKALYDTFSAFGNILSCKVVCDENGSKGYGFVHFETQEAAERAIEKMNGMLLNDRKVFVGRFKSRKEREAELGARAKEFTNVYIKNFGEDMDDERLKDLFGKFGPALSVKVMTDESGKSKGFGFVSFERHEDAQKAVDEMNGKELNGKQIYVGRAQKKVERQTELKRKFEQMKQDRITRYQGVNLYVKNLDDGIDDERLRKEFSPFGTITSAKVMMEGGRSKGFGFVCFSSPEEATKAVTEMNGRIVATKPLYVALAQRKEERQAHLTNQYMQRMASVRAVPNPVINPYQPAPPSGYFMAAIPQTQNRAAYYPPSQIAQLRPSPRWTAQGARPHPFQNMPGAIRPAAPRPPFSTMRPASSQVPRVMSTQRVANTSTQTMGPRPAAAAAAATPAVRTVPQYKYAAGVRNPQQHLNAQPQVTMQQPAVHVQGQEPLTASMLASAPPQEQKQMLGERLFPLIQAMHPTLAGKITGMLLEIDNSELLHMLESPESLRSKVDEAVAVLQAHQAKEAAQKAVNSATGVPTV
UUG fidelity: modulators of start codon recognition fidelity in yeast. activity score, % at 18.7 µM. actives 0.13% (n = 350,000). S. cerevisiae UUG-firefly luciferase reporter, luminescence/redox ratio. AID 602363;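 active means replicate mean at a twofold rise or more, about +100% in these data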;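 further: firefly luciferase made from a UUG start codon reports start codon fidelity; reporter light over untreated wells divided by growth signal over untreated wells; some hits fall short of that in this replicate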
eIF4H FP inh: inhibitors of RNA binding by human eIF4H; eIF4H fluorescence polarization binding assay; inhibition, % at 35 µM; actives 0.94% (n = 290,000); AID 2012;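 active means 50% or more with normal probe brightness, or confirmed in later tests; about a fifth of its hits are not listed in these tables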;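 further: calls also rest on retests at 20 µM and on dose response follow-up; 0% = protein and probe with vehicle and 100% = probe without protein; strong numbers were not always called active; many hits fall short of the cut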
HIV Env fusion: blocks HIV Env-driven cell-cell fusion; HeLa-JRFL Env/CEM21 cell fusion, luciferase; inhibition, % at 12.3 µM; actives 1.1% (n = 360,000); AID 651610;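 active means mean replicate inhibition score of at least 50 and every replicate individually at or above 50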;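 further: 0% = plate neutral controls and 100% = maraviroc near 300 nM; one replicate is shown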
CSC inhib: cancer stem cell inhibition | cancer stem cell-like cells viability, luminescence | inhibition, % at 7.5 µM | actives 1.1% (n = 300,000);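 active means mean at 75% or more and at least half the replicates too; tested in HMLE shEcad cells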;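 further: 0% = median of negative and 100% = median of positive control wells; the first replicate is given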
Rce1 inh: blocks yeast Ras-converting enzyme. Q03530. yeast membranes, quenched prenylated peptide cleavage fluorescence. calls only. actives 0.27% (n = 290,000). AID 2563;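 active means fall in fluorescence gain of 50% or more versus controls, with final raw signal at or below 3038400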;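 further: plate controls were neutral control wells for no effect and wells lacking membranes for full effect; tested at 10 µM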
MT1-MMP act inh: blocks activation of human MT1-MMP | P50281 | HT1080 RFP-PRO-GFP cells, GFP/RFP ratio fluorescence, overnight; percent of plate control window, DMSO zero | GFP/RFP ratio change, % at 20 µM | actives 0.061% (n = 360,000);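 active means GFP/RFP ratio change of at least 30% with cell ATP level not reduced by more than half and red fluorescence within 50% of control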; further: strong numbers were not always called active
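Read-out: GFP/RFP fluorescence ratio; Test system: RFP-PRO-GFP reporter HT1080 cells; Compound dosing: single-point 20 µM compound, 1% DMSO; Times: overnight compound exposure at 37 °C.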
eIF4H FP inh retest: further read-out of eIF4H FP inh, marked with its call; inhibition, %; compound at 20 µM; confirmation average;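 mean of two retest wells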
PABP FP inh retest: also measured in PABP FP inh; calls as there; inhibition, %; compound at 20 µM; confirmation repeats;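 mean of two retest wells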
MT1-MMP act inh RFP: also measured in MT1-MMP act inh; calls as there; RFP signal change, %; measured here: RFP expression control read;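 0 = vehicle wells; hits needed this value within 50% of zero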
Starred values were filed as active, the others as inactive; i = inactive; nt = no result given; & = joins results of further samples; [ ] = another dose, or the depositor's remark.

SMILES	PABP FP inh	UUG fidelity	eIF4H FP inh	HIV Env fusion	CSC inhib	Rce1 inh	MT1-MMP act inh	MT1-MMP act inh RFP	others
COc1ccc(S(=O)(=O)NCc2cccnc2)cc1Br	4	2	-4	16	9	i	8	-29
COc1cccc(OC)c1OCCN(C)C	-12	-1	-8	-71	-8	i	-4	1
COc1ccc(OC)c(C(=O)CN2C(=O)NC(C)(c3ccccc3)C2=O)c1 (centres undefined)	-1	2	-5	-26	11	i	5	0
CN(C(=O)COc1ncnc2c1cnn2-c1ccccc1)C1CCCCC1	2	-10	3	40	2	i	-4	-14
O=C(CCCOc1ccc(Cl)cc1Cl)NNC(=O)c1ccc(NC(=O)c2ccccc2)cc1	-1	-25	1	15	-4	i	3	4
O=C(NC(=S)NC1CC1)c1cccnc1	-5	-12	-10	-52	-11	i	3	0
Cc1cccc(OCC(=O)Nc2cc(C)on2)c1	4	-13	-4	nt	7	i	2	9
Cc1noc(C)c1CSCC(=O)Nc1cc(S(=O)(=O)N2CCOCC2)ccc1OC(C)C	nt	13	nt	3	2	i	3	3
COc1ccccc1NC(=O)Nc1cccnc1	-2	-5	11	17	-3	i	-1	-2
COc1cc(/C=N/NC(=O)C(C)n2nnc3ccccc32)ccc1O (centres undefined)	9	-14	-4	nt	-10	i	3	1
Cc1c(N2C(=O)CSC2c2ccc([N+](=O)[O-])cc2)c(=O)n(-c2ccccc2)n1C (centres undefined)	-10	1	2	-8	-4	i	3	-1
CC(C)CC(NC(N)=O)C(=O)OCC(=O)N(Cc1ccccc1)Cc1ccccc1 (centres undefined)	-6	nt	-10	-7	-3	i	1	2
O=C(O)C1=C[C@H](c2ccc(C(F)(F)F)cc2)C[C@H](OCCCCO)O1	nt	-1&2	nt	8[16.7 µM]	0	i	0	3
CCOc1cccc(-c2nnc(SCC(=O)Nc3cc(OC)cc(OC)c3)n2N)c1	-7	-2	-2	-9	-10	i	1	-1
Cc1nn(Cc2ccc(F)cc2)c(C)c1NC(=O)c1cc2ncc(Br)cn2n1	37	nt	69	3	-7	i	2	1	eIF4H FP inh retest=38;PABP FP inh retest=35
NC(=O)CC[C@@H]1NC(=O)[C@@H]2CCCN2C(=O)c2cc([N+](=O)[O-])cc(F)c2NCCC[C@@H](C(N)=O)NC1=O	-4	-7	-4	-16	6	i	4	1
COc1ccc(N2CC(C(=O)Nc3nnc(SCC(=O)NCC4CCCO4)s3)CC2=O)cc1 (centres undefined)	-9	-29	10	8	1	i	-4	1
CNC(=S)N1CCN(S(=O)(=O)c2ccc3ccccc3c2)CC1	4	-38	4	2	1	nt	1	2
CCN1C(=O)CSc2ccc(C(=O)OC)cc21	9	-12	-10	-15	7	i	-2	3
Cc1ccc(NC(=O)c2c(C)noc2-c2snnc2C)cc1	-6	nt	-7	-6	12	i	-1	0
COc1cccc2c1C(=O)O/C2=C/c1ccc2c(c1)OCO2	7	2	17	nt	-7	i	3	6
O=C(NCC(=O)N1CCc2ccccc2C1)c1ccccc1Cl	-7	-18	-14	-8	5	i	1	-1
CCCC(c1nnnn1C(C)(C)CC)N1CCN(C(=O)c2ccco2)CC1 (centres undefined)	5	-11	-17	-6	-5	i	-4	0
Cc1ccc(S(=O)(=O)N(C)CC(=O)NNC(=O)CCS(=O)(=O)c2ccccc2)cc1	nt	-13	nt	-2	-10	nt	-2	0
COc1ccccc1C(C[N+](=O)[O-])c1c[nH]c2ccccc12 (centres undefined)	1	nt	1	11	37	i	-1	-9

Arranged by length of the SMILES (high to low): some entries from above
SMILES	PABP FP inh	UUG fidelity	eIF4H FP inh	HIV Env fusion	CSC inhib	Rce1 inh	MT1-MMP act inh	MT1-MMP act inh RFP	others
COc1ccc(N2CC(C(=O)Nc3nnc(SCC(=O)NCC4CCCO4)s3)CC2=O)cc1 (centres undefined)	-9	-29	10	8	1	i	-4	1
Cc1ccc(NC(=O)c2c(C)noc2-c2snnc2C)cc1	-6	nt	-7	-6	12	i	-1	0
COc1cccc(OC)c1OCCN(C)C	-12	-1	-8	-71	-8	i	-4	1

Other compounds follow:
SMILES	PABP FP inh	UUG fidelity	eIF4H FP inh	HIV Env fusion	CSC inhib	Rce1 inh	MT1-MMP act inh	MT1-MMP act inh RFP	others
O=C(CSc1ncn[nH]1)Nc1cccc(S(=O)(=O)N2CCCCCC2)c1	0	-20	6	17	26	i	4	-4
CC(=O)c1cccc(NC(=O)c2cccc(N3C(=O)c4ccccc4C3=O)c2)c1	16	-16	13	-19	-35	i	-1	1
Cc1ccnc(NC(=O)CCC(=O)N(CC(=O)NC(C)(C)C)C2CCCC2)c1	8	-2	4	nt	-21	i	1	4
CSCCCNC(=S)N1CCc2ccccc2C1	-4	-7	6	9	-2	i	9	2
Cn1nnc2ccccc2c1=O	1	nt	-1	6	-4	i	0	4
O=C(O)CC(=O)Nc1ccc(Oc2ccc(C(F)(F)F)cn2)c(Cl)c1	-2	nt	1	15	-5	i	0	-5
Cn1cc(Cc2ccc(C(=O)NC34CC5CC(CC(C5)C3)C4)cn2)c2ccccc21	nt	-11	nt	1	nt	nt	2	-9
O=C(Nc1cccc(-c2cn3c(n2)SCC3)c1)c1ccc2ccccc2n1	13	-35	6	-56	9	i	0	4
O=c1[nH]c(CN2CCN(c3ccccc3Cl)CC2)nc2ccsc12	7	-12	8	-35	3	i	-4	-1
CC(C)Oc1ccc(CSc2ncn[nH]2)cc1	-4	nt	1	-46	1	i	1	3
COc1ccc(CCNC(=O)CN(c2cccc([N+](=O)[O-])c2)S(C)(=O)=O)cc1	-10	-14	6	-3	-4	i	2	2
COc1ccc(/C=N/NC(=O)c2cc(-c3ccccc3OC)nc3ccccc23)cc1COC(C)=O	-7	0	2	-66	-11	i	0	0
Cc1cccc(NC(=O)/C(C#N)=C/c2ccc(Sc3ccccc3)o2)c1C	13	nt	3	29	18	i	-3	-3
COc1ccc(N2C(=O)C(Cl)=C(Oc3cccc(OC)c3)C2=O)cc1	6	-37	8	nt	17	i	4	7
N#Cc1c(NC(=O)C2C3C=CC(C3)C2C(=O)O)sc2c1CCCCC2 (centres undefined)	6	nt	-4	7	-2	i	0	-1
Cc1ccccc1NC(=O)CN1C(=O)S/C(=C\c2cccn2-c2cccc(C(=O)O)c2)C1=O	38*	-15	81*	nt	2	i	2	7	eIF4H FP inh retest=68*;PABP FP inh retest=67*
COc1cccc(-n2c(SCc3ccccn3)nc3c(c2=O)SCC3)c1	-10	nt	-2	2	-5	i	2	3
Cc1ccnc(NC(=O)c2cccc(NC(=O)c3ccc(Cl)cc3)c2)c1	nt	-4	nt	-2	nt	nt	-4	-9
CN(C)C(/C=C/Nc1ccccc1F)=C(C#N)C#N	-2	-24	10	-30	1	i	1	2
O=C(CCC1(C(=O)O)CCC(=O)NC1)NCc1ccccc1 (centres undefined)	0	-6	-7	nt	-2	i	-2	-1
CNc1ncnc2c1ncn2[C@H]1CN(Cc2ccc3c(c2)OCO3)C[C@@H](CO)O1	nt	1	nt	-22	nt	nt	4	7
Cc1ccccc1CSCCNS(C)(=O)=O	-2	-14	-1	8	-4	i	6	3
Cc1cc(C)n(CC(=O)NNC(=O)CCNC(=O)c2ccccc2Cl)n1	nt	-15	nt	-4	-5	i	-1	-1
O=C(CC1NCCc2ccccc21)Nc1cccc(Cl)c1 (centres undefined)	-3	nt	0	27	7	i	5	4
CCn1c2ccccc2c2cc(Nc3cc(C)nc4ncnn34)ccc21	-7	-12	-8	-64	51	i	22	2

(cont.)
SMILES	PABP FP inh	UUG fidelity	eIF4H FP inh	HIV Env fusion	CSC inhib	Rce1 inh	MT1-MMP act inh	MT1-MMP act inh RFP	others
Cc1ccccc1-n1c(SC/C(O)=C(\C#N)c2nc3ccccc3[nH]2)nnc1-c1ccncc1	32	-18	31	-121	-4	i	-12	-7
O=C(COC(=O)c1ccccc1Cl)Nc1nccs1	14	-12	2	nt	-3	i	-3	1
O=c1c(Cc2ccc(F)cc2)c(O)ccn1CCc1ccccn1	-2	nt	-4	-8	-1	i	-5	-4
COc1ccc(-n2c(C)cc3cc(OC(C)=O)ccc32)cc1	2	-1	-2	7	-16	i	3	-3
Cc1ccc(N2CC(C(=O)Nc3cc(C)on3)CC2=O)c(C)c1 (centres undefined)	6	-13	8	-10	-7	i	-1	0
COC(=O)[C@H](Cc1ccccc1)NC(=O)c1ccc2ccccc2n1	-9	-17	15	1	-17	i	3	2
Cc1ccc(NC(=O)c2cc(-c3ccco3)on2)cc1	-1	nt	-13	-23	11	i	3	5
Cc1ccc(S(=O)(=O)N2C[C@H]3C(=O)C[C@@H](c4ccc(Cl)cc4)N(S(=O)(=O)c4ccccc4C)[C@H]3C[C@H]2c2ccccc2)cc1	nt	-17	nt	-77	nt	nt	-7	-7
COc1ccc(S(=O)(=O)N2CCOCC2)cc1NC(=O)CSc1nnc2ccccn12	-6	nt	-9	nt	-10	i	nt	nt
Cc1ccc2nc(SCC(=O)Nc3ccc(F)cc3)nc(=O)n2c1	nt	-15	nt	0	-12	i	-2	-3
O=C(Nc1ccc(-c2nc3c(ccc4ccccc43)o2)cc1)c1ccco1	-6	6	-12	nt	-10	i	7	-3
Cc1cc(CN(C)C(=O)CC2C(=O)NCCN2Cc2ccc(-c3ccccc3)cc2)on1 (centres undefined)	7	-16	-9	2	-6	i	nt	nt
COC(=O)c1cc2ccsc2n1CC(=O)Nc1cc(C)cc(C)c1	-3	-22	-2	nt	nt	i	-3	0
COC(=O)C1=C(C)NC(=O)/C1=C\c1ccco1	8	-11	8	nt	nt	i	0	5
Cc1ccc2cc(CCNC(=O)c3ccc(S(=O)(=O)N4CCCCC4)cc3)c(=O)[nH]c2c1	2	nt	-4	18	4	i	2	-4
O=C(NC(=S)N1CCCC1)c1ccc(Cl)cc1Cl	6	-22	-8	10	-10	i	3	0
CCN(CC)S(=O)(=O)c1cccc(NC(=O)C2CC(=O)N(c3ccc4c(c3)OCCO4)C2)c1 (centres undefined)	nt	-10	nt	-4	-10	i	-5	-10
COc1ccc(C(CNC(=O)c2oc3ccc(Cl)cc3c2C)N2CCCCC2)cc1 (centres undefined)	-8	10	-15	5	47	i	-1	-1

2 successive entries from above, quoted:
SMILES	PABP FP inh	UUG fidelity	eIF4H FP inh	HIV Env fusion	CSC inhib	Rce1 inh	MT1-MMP act inh	MT1-MMP act inh RFP	others
CCN(CC)S(=O)(=O)c1cccc(NC(=O)C2CC(=O)N(c3ccc4c(c3)OCCO4)C2)c1 (centres undefined)	nt	-10	nt	-4	-10	i	-5	-10
COc1ccc(C(CNC(=O)c2oc3ccc(Cl)cc3c2C)N2CCCCC2)cc1 (centres undefined)	-8	10	-15	5	47	i	-1	-1

Pulled one by one from the list above:
SMILES	PABP FP inh	UUG fidelity	eIF4H FP inh	HIV Env fusion	CSC inhib	Rce1 inh	MT1-MMP act inh	MT1-MMP act inh RFP	others
CN(C)C(/C=C/Nc1ccccc1F)=C(C#N)C#N	-2	-24	10	-30	1	i	1	2
CNC(=S)N1CCN(S(=O)(=O)c2ccc3ccccc3c2)CC1	4	-38	4	2	1	nt	1	2
O=c1c(Cc2ccc(F)cc2)c(O)ccn1CCc1ccccn1	-2	nt	-4	-8	-1	i	-5	-4

Screening results: PubChem, several laboratories
